High-throughput results from PubChem.
StopGo RLuc: FMDV 2A StopGo reporter, Renilla signal; HEK cells with a luciferase reporter of 2A StopGo recoding; 0.32% of 120,000 active; Potency, µM (series often up to 57.5 µM), for inactives: at the highest dose signal change, negative = less light; active means well fitted falling curve with a large enough effect; inconclusive means small, poorly fitted or top-dose-only effect; inactive means no such curve, though single readings can be large or run the other way; also: nearly all actives have a fitted effect of over 55% in size; overnight with compound
StopGo FLuc: lowers the firefly signal of an FMDV 2A StopGo reporter | AID 1745856 | HEK cells with a luciferase reporter of 2A StopGo recoding | 0.23% of 120,000 active | Potency, µM (titrated, usually from 57.5 µM), without a hit: at the top dose signal change, negative = less light; active = well fitted falling curve with a large enough effect; inconclusive = small, poorly fitted or top-dose-only effect; inactive = no such curve, though single readings can be large or run the other way; also: nearly all actives have a fitted effect of over 60% in size; overnight with compound
Starred values were filed as active, the others as inactive; ? = inconclusive; & = joins results of further samples; [ ] = another dose, or the depositor's remark. % is scaled to controls: 0 for no effect and ±100 for the full control effect; potency is read from the fitted curve at half-maximal effect.

SMILES	StopGo RLuc	StopGo FLuc
Cc1ccc(C(=O)COC(=O)Cn2cnc3c2c(=O)n(C)c(=O)n3C)c(C)c1	9%	22%
CN(C)S(=O)(=O)c1cc(NC(=O)c2nn(Cc3ccccc3)c(=O)c3ccccc23)ccc1Cl	14%	9%
CC(=O)c1ccc(NC(=O)CN(C)Cc2ccccc2N2CCCCC2)cc1	-12%	1%
O=C1CSC(c2ccc(Cl)cc2)c2cn[nH]c2N1 (stereo not given)	-15%	0%
Cc1cc(Nc2ccc(C(C)C)cc2)nc(-n2nc(C)cc2C)n1	-1%	?
Cc1ccc(OCC(O)Cn2c(NCCO)nc3c2c(=O)[nH]c(=O)n3C)cc1 (stereo not given)	-11%	20%
CCc1nn(CC(=O)N2CCCCC2)c(=O)c2cc3occc3n12	3%	-4%
COc1cc(SC)ccc1C(=O)Nc1cc(C)ccn1	8%	21%
CCOc1ccc(NC(=O)CSc2nnc3c(C)cc4ccccc4n23)cc1	-11%	-10%
CC(c1nc(C(C)(C)C)no1)N1CCN(C(=O)c2ccco2)CC1 (stereo not given)	-3%	22%
O=C(NCCc1ccccc1)C1CCC(CNS(=O)(=O)c2ccc(Cl)cc2)CC1 (stereo not given)	2%	0%
O=C(NCc1ccc(F)cc1)c1cc2n(n1)CCCN(Cc1ccc(F)cc1)C2=O	113%[activator]	-14%
Cc1ccc(-c2cc(C(=O)N3CCN(S(=O)(=O)c4ccc(Br)cc4)CC3)[nH]n2)cc1C	-18%	-13%
CCOC(=O)CCCSc1ccc2c(c1)OCCO2	6%	1%
COc1cccc(N2CC(NC(=O)c3ccc(S(=O)(=O)N4CCCC4)cc3)CC2=O)c1 (stereo not given)	-10%	-21%
Cc1cc2ccccc2n1-c1ccc(C(=O)N2CCCCC2)s1	22%	60%[activator]
COC(CNC(=O)C1CCN(c2ncnc3sc(C)c(C)c23)CC1)OC	-12%	-6%
CCn1cnc2c1c(=O)n(CC(=O)N1c3ccccc3CCC1C)c(=O)n2Cc1ccccc1 (stereo not given)	?	?
CCc1ccc2nc(-c3ccnn3CC)cc(C(=O)O)c2c1	-14%	15%
CCN(CC)Cc1ccc(CNC(=O)c2n[nH]c(=O)c3ccccc23)cc1	-8%	-6%
Cc1cccc(Cn2c(NCC3CCCO3)nc3c2c(=O)n(C)c(=O)n3C)c1 (stereo not given)	2%	9%
O=Cc1cccc2c1OCCO2	-6%	1%
COc1ccc(CCNC(=O)c2ccc3c(c2)CCN3S(=O)(=O)c2ccc(C)cc2)cc1OC	-3%	-20%
COc1ccc(OC)c(-n2cnc3cc(C(=O)NCCC(C)C)ccc3c2=O)c1	-1%	-2%
CNc1sc2c(c1C#N)CCCC2	5%	3%

(more compounds)
SMILES	StopGo RLuc	StopGo FLuc
COc1cc2c(c(OC)c1)C(c1ccccc1OCC(C)C)CC(=O)N2 (stereo not given)	0%	-9%
Cc1cccc(C2SCC(=O)Nc3n[nH]c(C)c32)c1 (stereo not given)	-2%	5%
O=C(CSc1n[nH]c(-c2ccccc2)n1)NCCc1ccccc1	-8%	-14%
COC(=O)COc1ccc2c(=O)c(-c3ccc(Cl)cc3)c(C(F)(F)F)oc2c1	-6%	0%
CCCCC(=O)Nc1ccc(-c2nc3cc(CC)ccc3o2)cc1	-2%	182%[activator]
CCC(=O)NCCc1sc(-c2ccc(F)cc2)nc1C	12%	202%[activator]
CC(NC(=O)c1cc(-c2ccccn2)nc2ccccc12)c1ccncc1 (stereo not given)	47%[activator]	43%[activator]
COc1ccc2c(CNCc3cccs3)c(C(=O)O)n(Cc3ccccc3F)c2c1	104%[activator]	-26%
Cc1cc(C(=O)Nc2nnc(C3CC3)s2)c2ccccc2n1	-18%	-11%
CCC(=O)N1CCc2cc(S(=O)(=O)CCC(=O)N(C)c3ccc(OC)cc3)ccc21	-10%	-1%
C#CCN1C(=O)S/C(=C/c2cn(C(C)C)c3ccccc23)C1=O	-5%	16%
CC(Oc1ccccc1Cl)C(=O)Nc1cc(-c2ccc(F)c(F)c2)no1 (stereo not given)	-9%	0%
CN(C(=O)CSc1ncnc2ccccc12)C1CCS(=O)(=O)C1 (stereo not given)	-16%	-12%
COc1ccc(CCNC(=O)CS(=O)Cc2nc(-c3ccc(C)cc3)oc2C)cc1OC (stereo not given)	11%	-12%
O=C(NCC12CC3CC(CC(C3)C1)C2)Nc1ccc(Cl)cc1F	?	?
CC(C(=O)NCCc1c[nH]c2ccccc12)N1CCCCCC1 (stereo not given)	-13%	4%
Cn1ccc2cc(S(=O)(=O)N3CCN(C(=O)Nc4ccc(F)cc4F)CC3)ccc21	-8%	7%
Cc1nc2cc(-c3ccccc3)nn2c(C)c1CCC(=O)NCc1cccc(Cl)c1	-6%	?
Cc1ccc(-c2cc(C(F)(F)F)n3nc(C)c(Cl)c3n2)cc1	-13%	-4%
Cc1cc2c(cc1C)CSC(c1cc(Cl)cc(Cl)c1O)SC2	16%	0%
COc1ccc(S(=O)(=O)N2CCC(C(=O)Nc3ccc(F)cc3)CC2)c2cccnc12	7%	-19%
N#CCCn1cc(C(=O)N2CCCCC2)c(-c2ccccc2)n1	177%[activator]	9%
O=c1cc(N2CCN(c3cccc(C(F)(F)F)c3)CC2)nc2ccccn12	?	?
O=C(O)CCSCc1ccc(C(=O)O)o1	-4%	0%
CC1(c2ccccc2)C=C(c2ccccc2)Oc2ccccc21 (stereo not given)	9%	8%

Remaining list, next part
SMILES	StopGo RLuc	StopGo FLuc
C/C(=N/NC(=O)c1cccs1)c1ccccc1	0%	146%[activator]
Cc1sc2ncn(Cc3noc(-c4cccs4)n3)c(=O)c2c1C	11%	0%
O=C(CSc1nccn1-c1ccccc1)Nc1nc2ccccc2s1	32%[activator]	372%[activator]
CCN1c2ccccc2-c2nc(SCC(=O)Nc3cccc(C(F)(F)F)c3)ncc2S1(=O)=O	21%	-11%
O=C1CC(c2cccc(F)c2)c2c(n3ncnc3[nH]c2=O)N1 (stereo not given)	-5%	-4%
Cc1nc2c3ccccc3nc(NNC(=O)CCC(=O)N3CCN(c4ccc(F)cc4)CC3)n2n1	-23%	1%
CCN(CC)CCCNC(=O)CCCn1c(=O)[nH]c2ccc(Br)cc2c1=O	-2%	-7%
CCc1cccc2c(C(=O)CSc3nnc(C4CC4)o3)c[nH]c12	-17%	24%
CC(C)n1ncc2cc(NC(=O)c3ccc(S(=O)(=O)N(C)C)cc3)cnc21	?	?
CCOc1ccc(NC(=O)CCc2nnc3n(C)c(=O)c4sccc4n23)cc1	-4%	-2%
Cc1ccc(-c2cn3c(n2)sc2cc(C(=O)NCCCN4CCCCC4)ccc23)cc1	-8%	63%[activator]
CCCN1C(=O)C(O)(CC(=O)c2ccc(C(C)C)cc2)c2ccccc21 (stereo not given)	40%&-7%	14%&37%
CCc1ccc(NC(=O)CSc2nc(=O)n(Cc3ccncc3)c3c2CCC3)cc1	21%	4%
Cc1cc2oc(=O)cc(CN3CCN(C(=O)c4ccco4)CC3)c2cc1C(C)C	42%[activator]	0%
Cc1ccc(NC(=O)C(Sc2ccccc2)c2ccccc2)c(C)c1 (stereo not given)	0%	13%
CC1CCN(S(=O)(=O)c2csc(C(N)=O)c2)CC1	64%[activator]	-22%
CCCN(CCC)S(=O)(=O)c1ccc(C(=O)Nc2sc3c(c2C(=O)OC)CCN(CC)C3)cc1	13%	1%
CCc1ccc(OCC(=O)Nc2ccc(SCc3cc(=O)n4c(ncn4C(C)C)n3)cc2)cc1	-9%	3%
COc1ccc2sc(N(Cc3cccnc3)C(=O)C3=COCCO3)nc2c1	?	-24%
O=C(CCC1N=C2c3ccccc3N=C(SCc3ccc(F)cc3)N2C1=O)NC1CCCCC1 (stereo not given)	-23%	?
COc1cccc(C(=O)/C(C#N)=C\c2ccc(F)c(Br)c2)c1	5%	5%
O=c1c2oc3ccccc3c2n(Cc2ccccc2F)c(=O)n1Cc1ccco1	-8%	-18%
COc1ccc(CCNc2nc3c(c(=O)n(C)c(=O)n3C)n2Cc2ccc(F)cc2)cc1OC	?	?
CC(C)(C)c1ccc(C(=O)Nc2ccc(C(F)(F)F)oc2=O)cc1	-3%	0%
O=C(COc1ccccc1)NCC(c1cccs1)S(=O)(=O)c1ccc(Cl)cc1 (stereo not given)	23%	-14%

The results go on:
SMILES	StopGo RLuc	StopGo FLuc
CCc1nnc(NC(=O)c2ccc(Cl)c(S(=O)(=O)N3CCc4ccccc43)c2)s1	?	?
CC1CN(C(=O)N2CCC(C(=O)NCc3ccco3)CC2)c2ccccc2O1 (stereo not given)	-7%	3%
CC12CCC(C[N+](C)(C)C1)C2(C)C (stereo not given)	-2%	4%
Cc1ccnc(NS(=O)(=O)c2ccc(NC(=O)c3cc(=O)c4ccc(C)c(C)c4o3)cc2)n1	7%	12%
Cc1cc(CS(=O)(=O)Cc2ccccc2Cl)no1	29%	44%[activator]
CCc1ccc(S(=O)(=O)c2nnn3c2nc(N2CCN(CC)CC2)c2sccc23)cc1	79%[activator]	-22%
COc1ccc(C(=O)Nc2nc3n(n2)C(c2ccc(F)cc2)C=C(c2ccc(Cl)cc2)N3)cc1 (stereo not given)	-9%	0%
Cc1cccc(NC(=O)COC(=O)COc2ccc3ccccc3c2)c1C	-16%	-11%
O=c1cc(CN2CCN(c3ccccc3)CC2)c2cc(Cl)ccc2o1	-1%	10%
CCS(=O)(=O)N1CCc2cc(C(=O)COc3ccc(C(=O)c4ccc(F)cc4)cc3)ccc21	?	?
CC1CCCN(CC2CCCCCN2)C1 (stereo not given)	8%	18%
O=C(Nc1cc(-c2nc3ccccc3o2)ccc1Cl)c1ccc([N+](=O)[O-])o1	-10%	48%[activator]
CCOCCCn1c(SCC(=O)Nc2cc(C)ccc2C)nc2c(oc3ccccc32)c1=O	-13%	-20%
CC(=O)c1ccc(-n2c(C)c(C(C)=O)c3cc(O)ccc32)cc1	15%	-6%
COc1cccc(CNC(=O)Cn2c(=O)[nH]c3c(-c4ccccc4F)c[nH]c3c2=O)c1	-7%	1%
CC(OC(=O)c1sc2cc(F)ccc2c1Cl)C(N)=O (stereo not given)	-2%	26%
COC(=O)c1cc(OCc2cccc(Br)c2)cc(C(=O)OC)c1	5%	-4%
CC(=O)c1cc2c(cc1NC(=O)CSc1nnc(C3CC3)n1Cc1ccccc1)OCO2	10%	-15%
C[N+]1(Cc2c(Cl)cccc2Cl)CCN(/C=C/C(=O)C(F)(F)F)CC1	-8%	-1%
Cn1c(C(=O)Nc2cccc(C(F)(F)F)c2)cc2c(=O)n3ccccc3nc21	-15%	6%
CC(C)(C)OC(=O)N1CCC(c2c(C(=O)N3CCCCC3)cnn2-c2ccc(Cl)cc2)CC1	-6%	-5%
Brc1ccc(-c2noc(Cc3ccccc3)n2)cc1	82%[activator]	349%[activator]
COc1ccc(CCNC(=O)CN(c2cccc(Cl)c2Cl)S(=O)(=O)c2ccccc2)cc1	20%	-18%
Cn1c(-c2ccc(F)cc2)cc2ccccc21	0%	0%
CCOC(=O)N1CCc2c(sc3c2c(=O)n(-c2ccc(CC)cc2)c(=O)n3Cc2cccc(Cl)c2)C1	-6%	-5%
COC(=O)C1CCN(C(=O)c2cc(-c3ccccc3)nc3ccccc23)CC1	19%	29%
COc1ccccc1C(C#N)C(C)=O (stereo not given)	-2%[1.06 µM]	19%
Cc1cc(C(=O)OCC(=O)NC(c2ccccc2)c2ccccc2)c2ccccc2n1	-21%	-18%
COCc1cccc(C(=O)NCc2cccs2)c1	16%	39%[activator]

Sorted by molecular weight (largest number first): part of the list above.
SMILES	StopGo RLuc	StopGo FLuc
CCOC(=O)N1CCc2c(sc3c2c(=O)n(-c2ccc(CC)cc2)c(=O)n3Cc2cccc(Cl)c2)C1	-6%	-5%
COc1ccc(CCNC(=O)CN(c2cccc(Cl)c2Cl)S(=O)(=O)c2ccccc2)cc1	20%	-18%
CCS(=O)(=O)N1CCc2cc(C(=O)COc3ccc(C(=O)c4ccc(F)cc4)cc3)ccc21	?	?
CCc1ccc(S(=O)(=O)c2nnn3c2nc(N2CCN(CC)CC2)c2sccc23)cc1	79%[activator]	-22%
CC(=O)c1cc2c(cc1NC(=O)CSc1nnc(C3CC3)n1Cc1ccccc1)OCO2	10%	-15%
CCc1nnc(NC(=O)c2ccc(Cl)c(S(=O)(=O)N3CCc4ccccc43)c2)s1	?	?
COc1cccc(CNC(=O)Cn2c(=O)[nH]c3c(-c4ccccc4F)c[nH]c3c2=O)c1	-7%	1%
Cc1cc(C(=O)OCC(=O)NC(c2ccccc2)c2ccccc2)c2ccccc2n1	-21%	-18%
Cn1c(C(=O)Nc2cccc(C(F)(F)F)c2)cc2c(=O)n3ccccc3nc21	-15%	6%
CC1CN(C(=O)N2CCC(C(=O)NCc3ccco3)CC2)c2ccccc2O1 (stereo not given)	-7%	3%
COC(=O)c1cc(OCc2cccc(Br)c2)cc(C(=O)OC)c1	5%	-4%
COC(=O)C1CCN(C(=O)c2cc(-c3ccccc3)nc3ccccc23)CC1	19%	29%
O=c1cc(CN2CCN(c3ccccc3)CC2)c2cc(Cl)ccc2o1	-1%	10%
CC(=O)c1ccc(-n2c(C)c(C(C)=O)c3cc(O)ccc32)cc1	15%	-6%
CC(OC(=O)c1sc2cc(F)ccc2c1Cl)C(N)=O (stereo not given)	-2%	26%
Cn1c(-c2ccc(F)cc2)cc2ccccc21	0%	0%
CC1CCCN(CC2CCCCCN2)C1 (stereo not given)	8%	18%
CC12CCC(C[N+](C)(C)C1)C2(C)C (stereo not given)	-2%	4%

This is a subset. The share of hits here may be higher or lower than overall.
